Source: PubChem BioAssay (National Center for Advancing Translational Sciences (NCATS))
Anthrax LT inh = blocks cellular internalization of anthrax lethal toxin; Potency, µM (doses to about 40 µM), without a hit: at the top dose activity change, negative = inhibition, actives largely listed as inhibitors; 70,000 tested, 0.67% active; Cells, anthrax lethal toxin internalization, FRET ratio (460/530); AID 912; active = well fitted falling ratio curve with the 530 nm signal flat; inconclusive = other ratio curves, or a change in one channel alone; inactive = flat curves in the ratio and both channels; the % refers to the ratio; also: % is scaled to controls: 0 for no effect and ±100 for the full control effect; nearly all actives have a fitted effect of over 50% in size; tested in ME-180 cells; beta-lactamase reporter
Prx2 Sm inh = blocks S. mansoni peroxiredoxin 2 enzymatic activity; S. mansoni Prx2 activity coupled to TGR/GSH (TGR is thioredoxin glutathione reductase), NADPH fluorescence loss, qHTS; some inactives read as strong as hits; Potency, µM; 65,000 tested, 0.07% active; AID 448; active means full or partial inhibition curve with a strong effect at the top dose; inconclusive means weaker partial or single-point curve; inactive means no accepted curve; also: series up to 57 µM; many of its hits are not listed in these tables
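Activity is read as the drop in NADPH fluorescence (365/450 nm), recorded every 30 sec for 8 min after H2O2 addition. Prx2 is coupled to TGR-driven NADPH oxidation through glutathione, in phosphate buffer pH 7.4.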
* marks the source's active call; other numbers are inactive results; i = inactive; u = inconclusive; x = not tested or not shown; & = joins results of further samples; [ ] = another dose, or the depositor's remark. Potency is read from the fitted curve at half-maximal effect.

compound | Anthrax LT inh | Prx2 Sm inh
O=C1CC(c2ccncc2)c2cc3c(cc2N1)OCCO3 (centres undefined) | 16% | >57
Cc1sc2ncn(CC(=O)NCC(=O)N3CCC4(CC3)OCCO4)c(=O)c2c1C | -4% | >57
COc1c(C(C)(C)C)cc([N+](=O)[O-])c(C)c1[N+](=O)[O-] | u | x
Cc1ccccc1NC(=O)C1CCN(c2cnccn2)CC1 | 1% | >57
O=C1C(=O)N(CCO)C(c2ccccc2)/C1=C(\O)c1ccccc1 (centres undefined) | -4% | >57
CCCn1c(-c2ccc(F)cc2)nc2c(NC3CCN(Cc4ccccc4)CC3)nc(C)nc21 | u | x
O=c1cc(-c2ccccc2)nc(N2CCN(Cc3ccc4c(c3)OCO4)CC2)[nH]1 | 1% | >57
O/N=C1/C(=C\c2ccccc2)N2CCC1CC2 | -10% | >57
Cc1ccc(Oc2nc3ccccc3n3c(C)nnc23)cc1 | -21% | >57
COc1cc(C(=O)NCc2nnc(SCC(=O)N3CCC(C)CC3)o2)cc(OC)c1OC | 1% | >57
CCOCCCNC(=O)c1ccc(OC)cc1 | 7% | >57
O=C(O)c1ccc(CSc2nnc(-c3ccncc3)n2CC2CCCO2)cc1 (centres undefined) | -15% | >57
O=c1cnc2cncnc2n1Cc1ccc(F)cc1 | u | >57
O=C(COC(=O)C1CCCN1C(=O)c1cccs1)Nc1ccc2c(c1)OCO2 (centres undefined) | u | >57
O=C(CSC1=NCCS1)Nc1ccccc1F | -5% | >57
CCOC(=O)N1CCN(C/C(C)=C/c2ccccc2)CC1 | 1% | x
CCC(C)(C)NC(=O)C(c1ccc(F)cc1)N(Cc1ccco1)C(=O)c1cnccn1 (centres undefined) | 13% | >57
Fc1ccc(C(c2nnnn2C2CCCC2)N2CCN(Cc3ccncc3)CC2)cc1 (centres undefined) | -2% | >57
CCOc1ccc(-c2nnc3ccc(SCC(=O)NCc4ccco4)nn23)cc1 | 6% | >57
CCSc1nnc(-c2ccc(Cl)cc2Cl)o1 | -26% | >57
CCOC(=O)N1CCN(C(=O)c2cc3c(ccc4ccccc43)oc2=O)CC1 | 4% | >57
COC(=O)[C@@]1(Cc2ccc(F)cc2)[C@H]2c3cc(C(=O)N(C)C)n(Cc4nc5ccccc5[nH]4)c3C[C@H]2CN1C(=O)c1ccccc1 | u | >57
Nc1ccccc1N=Nc1c(S(=O)(=O)O)cc2cc(S(=O)(=O)O)cc(O)c2c1O | -5%[8 µM] | i
CC(C)CC1C(C#N)=C(N)SC(N)=C1C#N | 0% | x
CSc1nnc2c(n1)OC(c1ccc(C(=O)O)cc1)N(C(C)=O)c1ccccc1-2 (centres undefined) | 2% | >57
CCOC(=O)C1CCN(C(C(=O)NC2CCCCC2)c2ccc(OC)cc2)CC1 (centres undefined) | -21% | >57
COC(=O)CSc1nnc(-c2ccncc2)o1 | 26% | x
CC1CCC(NC(=O)CN2CCCN(Cc3ccc(F)cc3Cl)C2=O)CC1 (centres undefined) | -12% | >57
COc1ccc(CCNC(=O)CCn2c(=O)oc3ccccc32)cc1 | 4% | >57
Clc1nc2sccn2c1/C=N/n1cnc2ccccc21 | -9% | >57
O=C1CN(CC(=O)N2CCCCC2)c2ccccc2O1 | u | >57
Cc1cccc(-n2c(=O)[nH]c3c(C(N)=O)nc(C(C)C)nc32)c1 | -6% | >57

Taken from above:
In Prx2 Sm inh, `Cc1cccc(-n2c(=O)[nH]c3c(C(N)=O)nc(C(C)C)nc32)c1` has the entry >57
In Anthrax LT inh, `Clc1nc2sccn2c1/C=N/n1cnc2ccccc21` has the entry -9%
In Anthrax LT inh, `CC1CCC(NC(=O)CN2CCCN(Cc3ccc(F)cc3Cl)C2=O)CC1` (centres undefined) has the entry -12%

Additional results follow.
compound | Anthrax LT inh | Prx2 Sm inh
COC(=O)C1=C(C)N(CCc2ccccc2)C(=O)C1 | 10% | >57
CCc1c(C)c2cc(Cl)c(O)c(CN(CC)CC)c2oc1=O | u | x
O=C(NC1CC1)c1ccc(S(=O)(=O)NCC2CCCCC2)cc1 | -9% | >57
O=C1CSC(c2ccco2)N1 (centres undefined) | 14% | x
O=C(Cc1ccc(Cl)c(Cl)c1)N1CCCC[C@H]1CN1CCCC1 | u | >57&>11
NC(=O)Nc1nc2ccccc2[nH]1 | 5% | x
O=C(O)CCC(=O)N1CCc2cc(S(=O)(=O)N3CCC(Cc4ccccc4)CC3)ccc21 | -1% | >57
Cc1ccc(NC(=O)CSc2nnc(CCCCCNC(=O)OC(C)(C)C)o2)c(C)c1 | 1% | >57

Filtered by structure, the entries above containing a tert-butyl group.
compound | Anthrax LT inh | Prx2 Sm inh
COc1c(C(C)(C)C)cc([N+](=O)[O-])c(C)c1[N+](=O)[O-] | u | x
Cc1ccc(NC(=O)CSc2nnc(CCCCCNC(=O)OC(C)(C)C)o2)c(C)c1 | 1% | >57

Additional entries follow:
compound | Anthrax LT inh | Prx2 Sm inh
Cc1ccc(N2CC(C(=O)NC3=NCCS3)CC2=O)cc1C (centres undefined) | -2% | >57
CC(=O)Oc1cc(OC(C)=O)c2c(=O)cc(-c3ccc(OC(C)=O)c(OC(C)=O)c3)oc2c1 | u | >57
CCCCN(CCCNC(=O)CN1C(=O)COc2ccccc21)c1ccccc1 | -1% | >57
CCc1c(C)[nH]n(CCC#N)c1=O | -9% | x
COc1ccc2nc(SCC(=O)Nc3ccc4c(c3)OCCO4)[nH]c2c1 | -17% | >57
Cc1ccc(-c2cc(C(=O)N3CCCC3)no2)cc1 | 19% | >57
COC(=O)c1sccc1NC(=O)c1ccncc1 | 0% | >57
CC(=O)c1cccc(NC(=O)NCCS(C)=O)c1 (centres undefined) | 11% | >57

Among those listed so far, 3 contain a thiophene ring, fused or not.
compound | Anthrax LT inh | Prx2 Sm inh
Cc1sc2ncn(CC(=O)NCC(=O)N3CCC4(CC3)OCCO4)c(=O)c2c1C | -4% | >57
O=C(COC(=O)C1CCCN1C(=O)c1cccs1)Nc1ccc2c(c1)OCO2 (centres undefined) | u | >57
COC(=O)c1sccc1NC(=O)c1ccncc1 | 0% | >57

More structures.
compound | Anthrax LT inh | Prx2 Sm inh
O=C(NC1(C(F)(F)F)NC(=O)N(Cc2cccnc2)C1=O)c1cccs1 (centres undefined) | -1% | >57
COc1ccc(-c2nnc(-c3ccc(N(C)C)cc3)o2)cc1 | 6% | >57
CC(=O)Nc1ccc(OCC(O)CN2CCN(Cc3ccccc3)CC2)cc1 (centres undefined) | 6% | >57
Cc1ccc(C(=O)Nc2ccc3c(c2)ncn3C)cc1 | -4% | >57
COC(=O)CCN1CCC(C(N)=O)CC1 | -5% | >57
COc1ccccc1CNC(=O)c1c(O)c2cc(OC)c(OC)cc2[nH]c1=O | -8% | >57
O=C1NC(=O)C2(CCC(C(=O)O)C2)N1 (centres undefined) | u | >57
Cc1ccc2cc(CN(Cc3cccs3)Cc3nnnn3CC3CCCO3)c(=O)[nH]c2c1 (centres undefined) | -13% | >57
Nc1nc(N)nc(-c2ccccn2)n1 | -10% | >57
O=C(CSc1n[nH]c(-c2ccc(S(=O)(=O)NC3CCCCC3)cc2)n1)N1CCCC1 | 1% | >57
O=C(c1ccc(CN2CCOCC2)cc1)N1CCN(Cc2ccccc2)CC1 | 3% | >57
CCC(Sc1nc(C)cc(=O)[nH]1)C(=O)Nc1sc2c(c1C#N)CCCC2 (centres undefined) | -44% | >57
O=C(CSc1nnc(Cc2ccccc2)n1-c1ccc(Cl)cc1)N1CCOCC1 | -14% | >57
COc1ccc(C(=O)Nc2ccc(S(=O)(=O)NCc3ccco3)cc2)cc1OC | 3% | >57
COc1cccc(-c2cc(NCCc3c[nH]c4ccc(OC)cc34)ncn2)c1 | 10µM* | x
CSc1nc(C)cc(SCCO)n1 | -10% | x
COc1ccc(OC)c(CNC(=O)C2CCN(S(=O)(=O)N3CCCC3)CC2)c1 | 5% | >57
COc1ccc(-n2c(Cc3cccn3C)nnc2SCC(=O)Nc2cccc(C)c2C)cc1 | -19% | >57
CCOc1ccc(NC(=O)C2CC=CCC2C(=O)O)cc1 (centres undefined) | 0% | >57
CCOC(=O)N1CCN(C(=O)COc2ccccc2OC)CC1 | -1% | >57
CCOC(=O)c1[nH]c(CSc2nnc(-c3ccc(OC)cc3)o2)c(C(=O)OCC)c1C | u | >57
O=c1c2cc(N3CCOCC3)ccc2[nH]c(=S)n1CCCN1CCCC1 | 7% | >57
CC1CCN(S(=O)(=O)c2ccc(S(=O)(=O)NCC3COCCO3)cc2)CC1 (centres undefined) | -16% | >57
Nc1nnc(CCC2CCCCC2)s1 | -3% | >57
COc1cccc(N(CC(=O)NC2CCCC2)C(=O)Cn2nnc(-c3ccc(C)cc3)n2)c1 | -1% | >57
COc1ccc(-c2cc(C(=O)Nc3c(C)nn(Cc4ccccc4Cl)c3C)no2)cc1 | 8% | >57
CCc1c(O)nc(SCc2ccccc2)n(C(C)CC)c1=O (centres undefined) | -12% | >57
CCN(CC)C(NC(=O)c1ccccc1)C(=O)c1ccccc1 (centres undefined) | 2% | >57
COC(=O)c1ccc(C(NC(=O)c2ccccc2)[C@]2(C)C[C@H]2C2CCCCC2)cc1 (some centres undefined) | u | >57
CN(C)S(=O)(=O)c1ccc(C(=O)Oc2cc(=O)[nH]c3ccccc23)cc1 | 3% | >57
CCOc1ccc(-c2nnc(N)o2)cc1 | -8% | >57
CCN1CCN(C(=O)c2cc3c(=O)n(C)c4ccccc4c3n2C)CC1 | 5% | >57
N#Cc1cn(CC(=O)NCCc2c[nH]c3ccccc23)c2ccccc12 | -8% | >57
Cc1cc(C(C)(C)C)cc(S(=O)(=O)NCC(=O)O)c1C | -4% | >57
CCn1c2ccccc2c2nnc(SCc3ccccc3)nc21 | u | >57
COC(=O)CSc1nc2c(c(=O)[nH]c(=O)n2C)n1CCC(C)C | -8% | >57
CCn1c(C(C)NC(C)=O)nc2ccccc21 (centres undefined) | 3% | >57
CCOC(=O)c1cc2c(=O)n3ccccc3nc2n(CCCOC)c1=NC(=O)c1cccnc1 | 10% | >57
O=C(Nc1ccc(OC(=O)c2ccncc2)cc1)c1ccncc1 | -4% | >57
O=C(CSc1nnc(CNC(=O)c2cccs2)o1)NC1CCCCC1 | 0% | >57
O=C(c1ccco1)N1CCN(S(=O)(=O)c2cccs2)CC1 | -3% | >57
O=C(Nc1ccccc1N1CCOCC1)c1ccc2ccccc2n1 | 14% | >57
CCOCCc1nnc(NC(=O)Cc2ccccc2)s1 | 4% | >57
Fc1ccc(-c2nnc3ccc(N4CCc5ccccc5C4)nn23)cc1 | -2% | >57
Cc1ccc(OCC(=O)Nc2ccc(-c3nnc(-c4ccco4)o3)cc2)cc1 | u | >57
CCOC(=O)c1ccc(CNC(=O)C(Cc2c[nH]c3ccccc23)NC(C)=O)o1 (centres undefined) | u | >57
CCN(CC)c1ccc(NC(=O)c2ccc(NC(=O)C3CCCO3)cc2)c(C)c1 (centres undefined) | 3% | >57
CCOC(=O)c1c(C)[nH]c2ccc(O)cc12 | 11% | >57
O=C(NCc1ccco1)C(c1ccc(F)cc1)N(Cc1cccnc1)C(=O)Cn1nnc2ccccc21 (centres undefined) | u | >57
Cc1ccc(-n2c(Cc3cccn3C)nnc2SCC(=O)NC2CCCCC2)cc1 | u | >57
COC(=O)CC1(CC(=O)OC)C(=O)NC(=O)NC1=O | -9% | x
O=C(O)C1C2C=CC(C2)C1C(=O)NCc1ccoc1 (centres undefined) | 11% | >57
CC(=O)Cc1nsc(NC(=O)C2Cc3ccccc3C(=O)O2)n1 (centres undefined) | -17% | >57
COc1cc(NC(=O)c2ccc(Br)o2)ccc1NC(=O)C(C)C | u | >57
COc1ccc(Cn2nnc3c(=O)[nH]c(C(=O)NCCc4ccc(F)cc4)nc32)cc1OC | u | >57
Cc1n[nH]c(C)c1CCN | -16% | >57

The list goes on.
compound | Anthrax LT inh | Prx2 Sm inh
O=C(C1CC(=O)N(C2CCCC2)C1)N1CCC(Cc2ccccc2)CC1 (centres undefined) | 17% | >57
C=CCNC(=O)C1CC=CCC1C(=O)O (centres undefined) | -11% | x
Cc1oc(C(=O)O)cc1COc1ccccc1Cl | 9% | >57
CCOC(=O)CCC(NC(=O)c1ccc(NCN2C(=O)c3ccccc3C2=O)cc1)C(=O)OCC (centres undefined) | -4% | >57
C=CCN1C(=O)NC2(CCCCC2)C1=O | 0% | x
NS(=O)(=O)c1ccc(NC(=O)CSC2CCCCC2)cc1 | u | >57
CCCCCOC(=O)C1[C@H]2C(=O)N(Cc3cccs3)C[C@]23C=C[C@H]1O3 (some centres undefined) | u | >57
O=C(NCCc1ccc(Cl)cc1)c1ncn[nH]1 | -2% | >57
C[N+]1(C)CCO[C@](O)(c2ccccc2)C1 | u | >57
CC(=O)N(C(C)=O)c1c(C#N)c(C)n(-c2ccccc2)c1C(=O)c1ccccc1 | u | >57
O=C(NC1CCCC1)C1CCCN1C(=O)Nc1ccc(Cl)cc1 (centres undefined) | -8% | >57
Cn1c(=O)c2c(nc(Br)n2CCCc2ccccc2)n(C)c1=O | u | >57
O=C(COCc1nc2ccccc2c(=O)[nH]1)NC1CCCC1 | -6% | >57

Not all compounds are listed; the hit share may differ from the screen's.
